RanGTP-Impb inh = inhibitors of RanGTP-importin-beta interaction, primary screen, biochemical, FRET, CFP-Ran, YFP-importin-beta, homogeneous; cell-free CFP-Ran/YFP-importin-beta FRET ratio; inhibition, % (test concentration not listed); hit rate 1.1% among 300,000;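 active = most replicates above 15%; inconclusive = exactly half above 15%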;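 also: 0% = DMSO wells and 100% = Ran loaded with GDP instead of GTP; wells of about 40 µL received 100 nL stock; the first replicate is given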
AF4-AF9 inh = inhibitors of human MLL-AF4/AF9 interaction; hit rate 0.47% among 350,000; P42568; AlphaScreen, biotin-AF4 peptide binding to FLAG-AF9; inhibition, % at 10 µM;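 active = every replicate reaching a set inhibition limit, whatever the replicate mean, cut at about 25% in these data; inconclusive = mean inhibition reaches that limit but some replicates miss it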;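 also: 0% = plate neutral control median and 100% = total signal loss; the record names both 10 and 1 µM as test concentration; the first replicate is given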
Target sequence (P42568 whole entry, looked up): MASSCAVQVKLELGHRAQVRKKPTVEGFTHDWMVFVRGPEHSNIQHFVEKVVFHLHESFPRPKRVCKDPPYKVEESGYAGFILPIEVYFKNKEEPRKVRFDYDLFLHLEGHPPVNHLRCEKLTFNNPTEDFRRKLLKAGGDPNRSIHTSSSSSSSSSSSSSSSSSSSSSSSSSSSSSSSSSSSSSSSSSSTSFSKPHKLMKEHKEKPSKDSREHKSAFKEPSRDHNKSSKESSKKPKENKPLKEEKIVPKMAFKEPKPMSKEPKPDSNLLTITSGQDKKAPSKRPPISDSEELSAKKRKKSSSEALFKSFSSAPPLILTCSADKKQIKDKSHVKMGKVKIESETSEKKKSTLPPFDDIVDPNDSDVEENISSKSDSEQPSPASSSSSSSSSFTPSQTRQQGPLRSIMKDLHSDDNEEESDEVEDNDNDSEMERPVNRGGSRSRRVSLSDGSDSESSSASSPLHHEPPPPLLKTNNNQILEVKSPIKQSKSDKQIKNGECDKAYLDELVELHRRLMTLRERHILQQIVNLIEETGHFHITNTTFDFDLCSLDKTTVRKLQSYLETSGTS
Beta cell apopt = blocks beta cell apoptosis. AID 435005. protection from apoptosis, % (concentration not given with the values). INS-1E cytokine-induced death, ATP luminescence, 48 h; percent of positive-control rescue, neutral wells zero. hit rate 0.8% among 300,000;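 active = all replicates at 75% or more, or half of them and the mean; inconclusive = half reach 75% but not the mean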;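 also: 0% = cytokine-treated negative control wells and 100% = positive control rescue; higher means more ATP so stronger rescue from cytokine killing; wells of about 40 µL received 100 nL stock; the first replicate is given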
FGF22 binding = binders of recombinant human FGF22 by thermal shift | calls only at 9.99 µM | hit rate 1.5% among 340,000 | SYPRO orange fluorescence; percent of sucrose octasulfate shift, DMSO zero | Q9HCT0;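 active = melting point raised past a set limit in the mean and every replicate; inconclusive = no clear call; three in four hits are not shown here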
Target sequence (Q9HCT0 whole entry, looked up): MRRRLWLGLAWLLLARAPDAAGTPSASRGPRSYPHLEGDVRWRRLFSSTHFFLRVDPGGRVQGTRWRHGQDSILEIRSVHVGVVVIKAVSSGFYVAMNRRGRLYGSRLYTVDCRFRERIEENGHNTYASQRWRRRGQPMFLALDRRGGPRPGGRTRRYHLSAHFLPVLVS
ALR inh = blocks human ALR sulfhydryl oxidase activity. P55789. purified ALR, DTT oxidation, H2O2 HRP-luminol luminescence. inhibition, % (no concentration beside the values). hit rate 3.8% among 290,000. AID 485317;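 active = mean and each replicate at 75% or more; inconclusive = only one of the two met; inactive = neither met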;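 also: stock transfer was 7.5 nL into about 7.5 µL; 0% = neutral wells and 100% = wells with inactivated enzyme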
Target sequence (P55789 whole entry, looked up): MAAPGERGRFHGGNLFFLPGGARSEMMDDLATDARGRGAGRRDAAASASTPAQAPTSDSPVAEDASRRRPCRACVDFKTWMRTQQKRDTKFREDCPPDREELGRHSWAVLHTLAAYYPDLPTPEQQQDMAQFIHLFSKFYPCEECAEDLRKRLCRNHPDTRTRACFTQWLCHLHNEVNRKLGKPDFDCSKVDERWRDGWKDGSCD
T cruzi inh = blocks replication of Trypanosoma cruzi; AID 1885; T. cruzi beta-gal in NIH3T3, luminescence, 90 h; hit rate 1.4% among 300,000; inhibition, % (concentration not given with the values);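 active = mean inhibition across valid replicates above about 55%, limit read from the data; inconclusive = mean below that limit but half or more replicates reach it; inactive = mean below it, under half of replicates reach it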;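 also: signal also drops with host cell toxicity which is not excluded here; 0% = plate median of DMSO wells and 100% = zero luminescence signal; higher percent means less beta-gal luminescence so fewer parasites; stock transfer was 50 nL into about 50 µL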
Calb FLC = C. albicans growth modulation with fluconazole; C. albicans CaCi-2 (fluconazole-resistant clinical isolate) + fluconazole, Alamar Blue growth, 48 h; growth inhibition, % (test concentration not listed); hit rate 0.57% among 300,000;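 active = most replicates above 75%; inconclusive = exactly half above 75%; inactive = most below 75%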;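 also: all wells also contain fluconazole at 8 µg/ml as a sub-toxic cotreatment; 0% = median of DMSO wells and 100% = median of geldanamycin control wells; wells of about 8 µL received 7.5 nL stock; the first replicate is given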
Ecoli rRNA inh = selective bacterial rRNA inhibition in E. coli | E. coli WT GFP vs humanized-ribosome RFP mutants, fluorescence, 24 h; hits give low values; DMSO median 0, no signal -100 | GFP signal change (wild-type ribosome), % (concentration not given with the values) | hit rate 1.6% among 350,000;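 active = significant combined selectivity score with lowered wild-type GFP, culture density cut under 30%, mutant RFP and density less affected; inactive = any of these conditions unmet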; also: one replicate is shown; some compounds called inactive have numbers as strong as hits
Ecoli rRNA inh OD600 = also measured in Ecoli rRNA inh; calls as there; OD600 change, %; measured here: OD600 growth;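 optical density of the mix in the first replicate; 0 = DMSO median and -100 = no signal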
Ecoli rRNA inh RFP = also measured in Ecoli rRNA inh; calls as there; RFP signal change, %; measured here: RFP humanized mutant strains;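 first replicate; 0 = DMSO median and -100 = no signal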
The depositor's hits bear a star; i = inactive; ? = inconclusive; . = not tested or not shown; + = active, no number. Only part of the results is shown. The share of hits here may be higher or lower than overall.

Compound	ALR inh	T cruzi inh	Ecoli rRNA inh OD600	Ecoli rRNA inh	FGF22 binding	RanGTP-Impb inh	AF4-AF9 inh	Ecoli rRNA inh RFP	Beta cell apopt	Calb FLC
CCCCNC(=O)C1CCC(CNS(=O)(=O)c2c(C)cc(C)cc2C)CC1 (stereo not drawn)	-10	23	9	22	i	-2.1	0.6	2.1	-1	15
CCN1CCN(CCCCOc2ccccc2F)CC1	-4	2	.	.	.	8.9	.	.	-8	0
Cc1ccc(-c2nnc(CSc3nnc(COc4ccccc4)n3-c3ccccc3)o2)cc1	.	16	.	.	.	-2.4	.	.	-3	20
C(=N\Nc1cc(N2CCCCC2)ncn1)/c1ccco1	34	-4	2	4	i	0.6	5.1	0.3	-4	9
Cc1ncc(CSc2nc3ccccc3[nH]2)c(N)n1	88*	-2	.	.	.	-4.6	.	.	-12	21
COc1cccc(-c2ncc3ccccc3c2CO)c1	-4	.	-7	4	i	.	1.2	1.3	-7	.
CS(=O)(=O)Nc1ccc(C2=NN(C(=O)c3cccc(F)c3)C(c3cccs3)C2)cc1 (stereo not drawn)	-15	14	-25	-16	i	0.9	-9.3	2.1	-2	12
Cc1ccc(S(=O)(=O)N2CCC(=O)CC2)cc1	1	-9	8	14	i	-1.0	-1.3	0.4	0	0
CC(NC(=O)Nc1ccc2c(c1)OCO2)C1CCCO1 (stereo not drawn)	-27	-1	.	.	.	2.3	.	.	4	4
O=C(N/N=C/c1ccccc1C(=O)O)c1ccc(COc2cccc3cccnc23)cc1	-28	-2	-5	-4	i	1.1	-1.2	1.5	-4	-5
Cc1cccc2cc(CN(CCN3CCCC3)C(=O)NC3CCCCC3)c(=O)[nH]c12	0	2	.	.	.	0.7	.	.	2	-2
Cc1ccc(S(=O)(=O)N(C)c2ccc(C(=O)Nc3ccccn3)cc2)cc1	-3	7	-30	-2	i	-0.5	?	2.4	.	-6
CCOC(=O)Cn1nc(C)n(-c2ccc(C)cc2)c1=O	-2	-11	.	.	.	-4.5	.	.	4	0
Cc1cc(F)ccc1S(=O)(=O)N1CCCOC1CNC(=O)C(=O)NC1CC1 (stereo not drawn)	1	-3	9	6	i	0.1	1.8	-0.3	17	-1
CCCCn1c(N)c(N(CC)C(=O)Cc2ccc(S(=O)(=O)N3CCOCC3)s2)c(=O)[nH]c1=O	-1	-6	9	11	.	0.2	-0.5	0.6	.	-8
CC(=O)N1CCC(=NNC(=O)CSc2cc(C)c(Br)cc2C)CC1	28	15	-13	-7	i	?	-6.1	-5.1	-5	1
CC(C)Sc1nc2ccccc2n1CC(=O)NCc1ccc2c(c1)OCO2	-5	-10	21	13	i	?	6.5	-2.7	-1	-1
COc1ccccc1N1CCN(C(=O)CCC(=O)Nc2nnc(CC(C)C)s2)CC1	17	2	0	-1	i	0.0	-0.8	0.5	8	-6
O=S(=O)(/N=C(/Nc1cc(N2CCOCC2)ncn1)c1ccccc1)c1ccccc1	-13	-6	.	.	.	0.6	.	.	-1	1
O=C(O)c1c[nH]c2cc(C(F)(F)F)ccc2c1=O	2	-17	.	.	.	1.6	.	.	-2	3
COc1ccc(C(=O)NC2CCN(CC(=O)Nc3c(C)cccc3C)CC2)cc1OC	-3	5	4	20	i	-1.1	-3.0	-1.2	.	-5
O=c1c2ccccc2nc(SCc2cccc(F)c2)n1Cc1ccco1	2	18	.	.	.	-2.1	.	.	.	-7
CC(=O)c1cccc(N2C(=NC(=O)C3CC3)SC3CS(=O)(=O)CC32)c1 (stereo not drawn)	1	-2	11	9	i	1.2	-1.2	-2.6	-4	.
COc1ccc2cc(CCNC(=O)c3ccco3)c(=O)[nH]c2c1	-4	-6	-21	-16	i	3.3	-2.2	-2.5	0	-1
Cc1ccccc1OCC(=O)Nc1ccccc1NC(=O)c1ccco1	5	-11	-8	-6	i	-2.8	-1.5	0.3	.	-1
O=C(CNC(=O)c1ccccc1Cl)N/N=C/C=C/c1ccccc1	-22	-22	6	9	i	7.2	-0.3	6.3	-2	1
C=CCN(CC=C)C(=O)c1cccc(OC2CCN(S(=O)(=O)N(C)C)CC2)c1	.	0	1	1	i	-0.5	-14	3.4	1	1
CC1=C(C(=O)OCC2CCCO2)C(c2coc3ccccc3c2=O)C2=C(CC(C)(C)CC2=O)N1 (stereo not drawn)	2	-12	-15	-2	i	0.0	2.8	-4.6	2	-14
Cc1ccc(S(=O)(=O)CC(=O)Nc2ccc(F)c(F)c2F)cc1	-3	.	11	11	i	-1.6	-1.9	-1.5	-6	2
O=C(NCCCCc1ccccc1)c1ccccc1Cl	-6	-10	-42	-33	i	0.9	-2.7	-8.4	3	-18

Compound	ALR inh	T cruzi inh	Ecoli rRNA inh OD600	Ecoli rRNA inh	FGF22 binding	RanGTP-Impb inh	AF4-AF9 inh	Ecoli rRNA inh RFP	Beta cell apopt	Calb FLC
Cc1ccccc1CNC(=O)C(=O)Nc1nccs1	0	-16	14	18	i	-0.1	-1.8	1.6	-2	3
CC(=O)N1C(=O)NC2=C(C(=O)CCC2)C1c1cccc([N+](=O)[O-])c1 (stereo not drawn)	.	0	9	1	i	2.9	0.9	-0.9	0	1
BrCCOCCOc1ccc2ccccc2c1	-12	-9	.	.	.	3.2	.	.	-4	-11
O=C(CC1C(=O)NCCN1C(=O)Nc1ccccc1)Nc1ccc2c(c1)OCO2 (stereo not drawn)	-11	-4	.	.	.	0.1	.	.	-4	.
COc1ccc2c(c1)CC/C(=C\c1ccc(OC)c(Cn3nc(C)cc3C)c1)C2=O	.	9	.	.	.	2.8	.	.	14	22
COc1ccc(C#Cc2ccc3c(c2)c(=O)c2ccccc2n3C)cc1	-3	43	-1	18	i	84*	-6.6	3.8	-11	-13
Cc1ccccc1OCC(=O)N(Cc1ccco1)c1c(N)n(Cc2ccccc2)c(=O)[nH]c1=O	-6	.	6	-1	i	.	-8.6	1.0	-4	.
O=S(=O)(Nc1nc(-c2sccc2Cl)cs1)c1cc(Cl)ccc1Cl	98*	16	.	.	.	-2.9	.	.	2	65
CC1(C)Cc2ccccc2-c2nc3ccccc3c(=O)n21	-15	-11	.	.	.	8.7	.	.	0	3
CC(=O)Nc1ccc(Br)cc1C(=O)C(=O)O	2	-30	.	.	.	6.0	.	.	.	-6
O=C(CN1CCN(c2ccc(F)cc2)CC1)Nc1ccc(F)c(F)c1	.	-1	.	.	.	2.1	.	.	-6	-4
CC(=O)Nc1ccc(OCC(=O)NCc2ccc3c(c2)OCO3)cc1	-1	-6	-2	6	.	2.7	-1.0	-4.5	.	-41
CC1CCc2sc(C(=O)N=Nc3c(O)[nH]c4ccccc34)cc2C1 (stereo not drawn)	-7	-7	.	.	.	-1.3	.	.	5	-6
Nc1ccc2nc3c(c(Cl)c2c1)CCCC3	-11	-1	5	-3	i	3.6	-13	4.9	-10	-3
CC1(C)CC(=O)C=C(NC2CC(C)(C)NC(C)(C)C2)C1	-1	-1	.	.	.	-1.4	.	.	-3	-17
CCN(c1ccccc1)S(=O)(=O)c1ccc(OC)c(NS(=O)(=O)c2cccs2)c1	1	-2	-16	-17	i	3.0	-0.7	2.0	1	-4
CCc1ccc(N2C(=O)CN(CC(=O)OC)C2=S)cc1	-1	-9	2	5	i	-15	-1.1	3.4	.	0
Cc1ccn2cc(CCNC(=O)COc3ccccc3)nc2c1	-10	-12	0	4	i	-5.4	2.5	-3.4	-4	-5
CN(C(=O)c1ccc(OC2CCN(Cc3ccccn3)CC2)cc1)C1CCCCC1	-3	23	9	3	i	1.6	1.2	1.7	1	-5
Cc1ccc(/C=N/NC(=O)c2ccc(NC(=O)c3ccccc3Cl)cc2)o1	2	2	.	.	i	-1.3	5.2	.	2	-14
CCOC(=O)C1(C)C=C(Nc2ccccc2)C(=O)N1c1ccccc1 (stereo not drawn)	-8	-3	3	1	i	1.6	-0.9	4.0	-11	3
c1ccc(-c2nnnn2-c2ccccc2)cc1	-13	-6	8	16	i	-2.4	-1.2	4.8	-2	12
Cc1ccc(S(=O)(=O)N2CCC(C(=O)OCC(=O)N3CCc4ccccc43)CC2)cc1	-4	4	.	.	.	-1.6	.	.	-9	-6
COC(=O)c1ccccc1-c1ccc(/C=N/NC(N)=O)o1	-11	-6	2	2	+	-1.6	2.6	-3.7	-7	-4
Cn1c(=O)c2c(SCc3c(F)cccc3Cl)nc(CC(C)(C)C)nc2n(C)c1=O	.	42	1	-2	i	0.2	-7.1	-1.7	3	6
COc1cccc(OC)c1C(=O)OCC(=O)NCc1ccco1	0	.	1	-1	i	.	0.5	-1.9	-2	.
O=C(CNC(=O)C1COc2ccccc2O1)N/N=C\c1cccc(O)c1 (stereo not drawn)	28	6	.	.	.	-2.7	.	.	-1	8
O=[N+]([O-])c1ccc(N/N=C2\CC3CC=CC23)cc1 (stereo not drawn)	96*	19	-37	-37	i	?	11	-8.0	9	-2
N#Cc1ccc(OCC(=O)OCC(=O)Nc2ccc(N3CCOCC3)cc2)cc1	94*	-16	7	6	i	-2.5	0.5	-4.6	0	1
O=C(NCCN1CCCCCC1)C1CC(=O)N(CCc2ccccc2)C1 (stereo not drawn)	-4	8	9	3	.	3.3	.	-1.4	-8	-2

Compound	ALR inh	T cruzi inh	Ecoli rRNA inh OD600	Ecoli rRNA inh	FGF22 binding	RanGTP-Impb inh	AF4-AF9 inh	Ecoli rRNA inh RFP	Beta cell apopt	Calb FLC
COc1ccc(OCC(=O)NN2Cc3ccccc3C2=N)cc1	2	-2	.	.	.	0.4	.	.	-8	2
CC(=O)N1CCCc2ccc(NS(=O)(=O)c3ccc(C)cc3)cc21	.	-18	-6	5	i	0.1	-3.1	0.5	19	-3
S=C(Nc1ccc(Cl)cc1)N(CCCN1CCOCC1)Cc1ccco1	-32	-25	.	.	.	1.9	.	.	0	4
Cc1ccn2c(C(=O)N/N=C\c3cccs3)c(C)nc2c1	-5	-10	.	.	.	0.0	.	.	-8	-16
CCCCC1CCC(C(=O)Nc2ccc(S(=O)(=O)Nc3nccs3)cc2)CC1 (stereo not drawn)	0	-11	-7	-1	.	-1.4	.	3.8	-5	-23
CCCCc1nc(SCC(=O)Nc2ncccn2)n[nH]1	-2	-5	8	-3	.	-3.0	.	-4.8	-11	2
Cc1ccc(C)c(OCCn2cc(C(=O)O)c3ccccc32)c1	61	-21	-21	-21	.	-2.1	-2.7	-1.4	-8	30
Cc1cc(C)c2c(N)c(C(=O)Nc3ccccc3Br)sc2n1	-3	48	-5	4	.	4.3	-8.7	-0.3	3	10
O=C(/C=N/O)Nc1ccccc1	48	-1	.	.	.	2.5	.	.	-10	0
COC(=O)C1CCN(C(c2ccc(OC)c(OC)c2)c2sc3nc(C)nn3c2O)CC1 (stereo not drawn)	4	-2	8	-3	i	-1.1	8.5	0.1	0	-4
Cc1ccc(N2C(=O)NC(NS(=O)(=O)c3ccc(C)cc3)(C(F)(F)F)C2=O)cc1 (stereo not drawn)	2	6	-2	-9	i	3.2	-1.4	-0.9	5	-10
